Arbovirus anti: antivirals against arbovirus infection, primary screen, cell-based, full library, 10K replicate subset; arbovirus infection cell-based antiviral screen; inhibition, % at 10 µM; 0.37% of 200,000 active; AID 1251, 2008;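 active = inhibition from about 30%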;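 also: bluetongue infection of BSR cells; cell survival read as ATP light after 72 h; 0% = infected wells without compound and 100% = uninfected wells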
Mtb growth: M. tuberculosis H37Rv growth inhibitors, H37Rv strain (AID 1626); M. tuberculosis H37Rv growth inhibition; higher % means a stronger effect; inhibition, % at 10 µM, or IC50 in µM where a hit was titrated; 0.95% of 220,000 active;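 active = confirmed in a dose series; inconclusive = inhibition above 80% but not taken into the dose series; inactive = below 80% or under 30% at every dose of the series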;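 also: bacteria incubated seven days before Alamar blue readout; 0% = bacteria only wells and 100% = bacteria with antibiotic wells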
YopH inh: YopH tyrosine phosphatase inhibitors, primary screen, biochemical, fluorescence Ex485/Em525. 0.16% of 140,000 active. inhibition, %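 (about 10 µM by stock and volumes)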. YopH tyrosine phosphatase [Yersinia enterocolitica]. AID 898, 2007;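 active = inhibition of 50% or more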;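 also: controls were vehicle for no effect and minimum signal wells for full effect; inactives centre near -20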
Mtb betalactam: beta-lactam sensitization of Mtb H37Rv, H37Rv; AID 434955, 2010; inhibition, % at 25 µM; 0.27% of 330,000 active; M. tuberculosis H37Rv growth with meropenem, percent inhibition; hits of this screen are not shown here;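 active = about 74% or more and at least 40 points above the plate without the antibiotic, then above 30% in a dose series; inconclusive = first-round hits that could not be retested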;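 also: growth measured after seven days incubation then overnight dye step; 0% = bacteria only wells and 100% = bacteria with antibiotic; twin plates without the antibiotic show which effects depend on it; some results filed as inactive read as strong as hits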
RecA splice inh: Mtb RecA intein splicing inhibitors, primary screen, biochemical, fluorescence, HTS | inhibition, %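 (about 9 µM by stock and volumes)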 | 0.75% of 290,000 active | Protein RecA (Mycobacterium tuberculosis (strain ATCC 25618 / H37Rv)), P9WHJ3 | AID 2221, 2009 | cell-free RecA intein splicing; in the data active = inhibition above about 30%; inconclusive = no clear call, values can overlap the other calls;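 also: 0% = vehicle wells and 100% = reference inhibitor control wells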
Target sequence (P9WHJ3 whole entry, looked up, canonical isoform): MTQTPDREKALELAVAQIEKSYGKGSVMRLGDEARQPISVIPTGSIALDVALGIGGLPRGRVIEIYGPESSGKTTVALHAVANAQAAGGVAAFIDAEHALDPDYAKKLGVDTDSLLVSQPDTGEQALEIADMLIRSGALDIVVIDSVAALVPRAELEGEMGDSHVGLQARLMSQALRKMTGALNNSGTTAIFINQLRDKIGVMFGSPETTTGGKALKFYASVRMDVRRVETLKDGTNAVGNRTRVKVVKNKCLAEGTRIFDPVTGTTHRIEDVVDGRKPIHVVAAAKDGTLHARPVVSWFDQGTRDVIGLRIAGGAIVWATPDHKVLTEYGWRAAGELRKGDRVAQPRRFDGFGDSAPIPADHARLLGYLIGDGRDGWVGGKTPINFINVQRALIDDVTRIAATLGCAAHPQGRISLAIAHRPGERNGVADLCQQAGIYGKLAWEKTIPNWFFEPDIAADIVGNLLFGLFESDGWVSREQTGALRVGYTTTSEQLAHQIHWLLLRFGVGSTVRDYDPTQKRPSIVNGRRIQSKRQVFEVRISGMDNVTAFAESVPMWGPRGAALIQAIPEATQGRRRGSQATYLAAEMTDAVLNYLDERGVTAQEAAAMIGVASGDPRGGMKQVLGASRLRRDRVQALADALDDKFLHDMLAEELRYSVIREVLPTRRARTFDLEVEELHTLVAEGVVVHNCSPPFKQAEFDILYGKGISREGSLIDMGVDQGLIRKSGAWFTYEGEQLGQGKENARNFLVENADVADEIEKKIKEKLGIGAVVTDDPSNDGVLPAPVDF
Arbovirus anti repeat: also measured in Arbovirus anti; calls as there; inhibition, %; measured here: 10K subset replicate screen; many hits read low in the repeat;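 first of two repeat runs on a subset; 0% = infected and 100% = uninfected wells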
The depositor's hits bear a star; u = inconclusive; x = no result given. This is a subset. The share of hits here may be higher or lower than overall.

Start of the data: the first 2 records as a preview:
SMILES	Arbovirus anti	Mtb growth	YopH inh	Mtb betalactam	RecA splice inh	others
Cc1ccc(C)c(N(C(=O)c2csnn2)C(C(=O)NC2CCCC2)c2ccncc2)c1 (stereo not given)	x	x	x	-6	-1.4
O=C(NCC1CCCCC1)C1(CC2CC(c3cccc(Br)c3)=NO2)CCNCC1 (stereo not given)	x	x	x	37	-6.3

The listing, from the start:
SMILES	Arbovirus anti	Mtb growth	YopH inh	Mtb betalactam	RecA splice inh	others
Cc1ccc(C)c(N(C(=O)c2csnn2)C(C(=O)NC2CCCC2)c2ccncc2)c1 (stereo not given)	x	x	x	-6	-1.4
O=C(NCC1CCCCC1)C1(CC2CC(c3cccc(Br)c3)=NO2)CCNCC1 (stereo not given)	x	x	x	37	-6.3
Cc1cc(N2CCCC(C(=O)Nc3cccc4ccccc34)C2)n2ncnc2n1 (stereo not given)	1	5%	x	-13	0.7
Cc1sc2ncnc(N3CCC(C)CC3)c2c1C	7	-7%	-3	26	5.3
Cc1ccc2cc(CN(Cc3ccco3)C(=S)NCC3CCCO3)c(=O)[nH]c2c1C (stereo not given)	-2	4%	-38	0	5.0
O=C(CSc1nnc(CNC(=O)c2ccccc2)o1)NCc1ccc2c(c1)OCO2	x	x	x	u	-5.9
CCOC(=O)/C=C/c1ccc2oc3ccccc3c(=O)c2c1	x	x	x	-5	-3.1
Fc1ccc(-c2nnc(CN3CCC(c4nc5ccccc5s4)CC3)o2)cc1	0	-11%	-36	x	x
CCCCC1=NN(C(=O)c2cocc2C)C(O)(C(F)(F)F)C1 (stereo not given)	6	-1%	-20	1	-0.2
O=C(c1ccc2ccccc2c1)C1CCCN(C(=O)c2cccnc2)C1 (stereo not given)	x	x	x	-1	1.1
O=C(OCc1ccccn1)c1ccc(COc2ccccc2Cl)o1	-4	-6%	-8	3	1.0
O=C(NCc1ccc(F)cc1)C(Cc1ccccc1)n1cccc1 (stereo not given)	x	-3%	x	4	3.7
Cc1cc(NC(=O)C(C)SCC(=O)OCc2c(Cl)cccc2Cl)no1 (stereo not given)	x	x	x	u	6.5
C/C(=N\N=C(N)N)c1ccc(Cl)cc1Cl	-26	12%	x	-4	0.9
COc1ccc(N2CCN(C(=O)COC(=O)c3ccc(C)o3)CC2)cc1	x	x	x	3	-2.0
NC1=NC[C@H](Cc2ccc(O)cc2)N1CC1CCCCC1	x	-3%	x	-2	1.1
CCN(CC)C(=O)CSc1nnc(-c2ccccc2)c(-c2ccccc2)n1	-9	1%	-3	-10	-10
CCN(CC)c1ccc(NC(=O)c2cccnc2)c(C)c1	-6	6%	6	0	-5.0
Cn1nnc(NC(=S)NC(=O)c2cc(Cl)ccc2Cl)n1	x	x	x	2	5.0
CCC(=O)NCCc1cc2ccc(C)c(C)c2[nH]c1=O	3	1%	-3	-1	2.1

Three consecutive entries out of the list so far:
SMILES	Arbovirus anti	Mtb growth	YopH inh	Mtb betalactam	RecA splice inh	others
CCN(CC)c1ccc(NC(=O)c2cccnc2)c(C)c1	-6	6%	6	0	-5.0
Cn1nnc(NC(=S)NC(=O)c2cc(Cl)ccc2Cl)n1	x	x	x	2	5.0
CCC(=O)NCCc1cc2ccc(C)c(C)c2[nH]c1=O	3	1%	-3	-1	2.1

(list continues)
SMILES	Arbovirus anti	Mtb growth	YopH inh	Mtb betalactam	RecA splice inh	others
COc1ccc(CN(C(=O)c2snc(C(N)=O)c2N)C(C(=O)NC2CCCC2)c2cc(OC)ccc2OC)cc1 (stereo not given)	x	x	x	-1	2.4
O=S(=O)(NC1CCCCC1)c1ccc(S(=O)(=O)N2CCN3CCCC3C2)cc1 (stereo not given)	4	-8%	-30	-4	0.9
Cc1nc(N)sc1C(=O)N/N=C/c1ccc([N+](=O)[O-])cc1	x	2%	x	2	-0.8
Cc1ccc(-c2nc(NCc3ccco3)c3ccccc3n2)cc1	-22	9.4µM*	-25	96	8.7
Cc1ccc(C(=O)N/C(=C/c2ccc(Cl)cc2)C(=O)N2CCOCC2)cc1	x	x	x	5	-0.5
COc1cc(C2C3=C(CCCC3=O)Nc3[nH]n(-c4ccccc4)c(=O)c32)cc(OC)c1OC (stereo not given)	16	-1%	x	-4	0.1
CCNc1ccc(C(=O)OCC)cc1NC(=O)c1cccc(S(=O)(=O)N(C)c2ccccc2)c1	-2	0%	-25	-1	12
COC(=O)c1ccc(S(=O)(=O)N2CCCCCC2)n1C	x	-6%	x	5	0.0
CC(C)(C)OC(=O)NCCCCCc1nnc(SCC(=O)Nc2cccc(Cl)c2)o1	-3	2%	-51	-1	-0.3
Cc1ccc(SCc2cc(=O)[nH]c(/N=C(\N)Nc3cccc4ccccc34)n2)cc1	-13	3%	-24	-6	1.4
COc1ccc(N=C2SC(C(=O)N3CCN(c4ccccc4)CC3)CC(=O)N2C)cc1 (stereo not given)	4	2%	x	-1	0.0
Brc1ccc(C2=Nc3cccc4cccc(c34)N2)o1	-10	7%	-23	2	6.4
Cc1cc(C[n+]2ncsc2N)c2ncccc2c1	x	-6%	x	-1	0.0
Cc1ccc(NC(=O)Cn2ncn3c(cc4ccccc43)c2=O)c(C)c1	x	x	x	4	1.3
N#Cc1ccccc1OCC(=O)OCCCOC(=O)COc1ccccc1C#N	x	x	x	7	-0.4
CCOc1ccc(-c2c(=O)n(O)c3ccccc3[n+]2[O-])cc1	x	x	x	-6	-14
COc1ccc(OC)c(Nc2nc(N)c([N+](=O)[O-])c(NC3CCCCC3)n2)c1	x	x	x	-5	0.2
CN(c1ccc(C(=O)N2CCN(Cc3ccccc3)CC2)cc1)S(=O)(=O)c1ccc(Cl)cc1	x	x	x	71	-0.3
Cc1ccc2nc(SCC(=O)Nc3ccc(Cl)cc3)nc(=O)n2c1	x	x	x	1	0.7
Cc1ccc(C)n1/N=C1/NC(=O)CS1	-2	2%	-30	4	x
O=C(NCCN1CCOCC1)/C(=C\c1ccc(F)cc1)NC(=O)c1ccccc1	x	x	x	5	-2.4
CCOC(=O)c1ccccc1NC(=O)COC(=O)CSC(C)C(=O)Nc1cc(C)on1 (stereo not given)	x	x	x	-16	-2.0
O=C(O)CCCCCN1C(=O)C2CCCCC2C1=O (stereo not given)	-4	5%	-29	-6	0.2
O=C(O)CSc1nc(SCc2ccccc2Cl)nc2c1CCCC2	1	-9%	-41	-6	4.5
CCCC1(c2ccccc2)NC(=O)N(CC(=O)Nc2cc(C)on2)C1=O (stereo not given)	6	-2%	x	-5	-0.8
COc1cccc(C(=O)NNc2nc(C)cc(C)n2)c1	6	-2%	-23	-7	-3.9
C=CCn1c(SCc2cc(=O)n3ccsc3n2)nc2scc(C3CC3)c2c1=O	8	-12%	x	8	1.2	Arbovirus anti repeat=1
C#CCOc1ccc(/C=C2/C(=O)N(c3cccc(C(=O)O)c3)N=C2C)cc1OC	x	x	x	13	71*
Cn1c(=O)c(=O)n(C)c2cc(N3CCOCC3)c(NS(=O)(=O)c3ccc(Br)cc3)cc21	x	x	x	0	-5.5
Cc1ccc2cc(CN(C(=O)C3CCCO3)C3CCCCC3)c(=O)[nH]c2c1 (stereo not given)	4	-6%	-42	-1	2.0

Reprinted at random: three entries already listed.
SMILES	Arbovirus anti	Mtb growth	YopH inh	Mtb betalactam	RecA splice inh	others
Cc1ccc(SCc2cc(=O)[nH]c(/N=C(\N)Nc3cccc4ccccc34)n2)cc1	-13	3%	-24	-6	1.4
Cc1cc(N2CCCC(C(=O)Nc3cccc4ccccc34)C2)n2ncnc2n1 (stereo not given)	1	5%	x	-13	0.7
Cn1c(=O)c(=O)n(C)c2cc(N3CCOCC3)c(NS(=O)(=O)c3ccc(Br)cc3)cc21	x	x	x	0	-5.5

Going on with the list:
SMILES	Arbovirus anti	Mtb growth	YopH inh	Mtb betalactam	RecA splice inh	others
Cc1nn(CC(=O)N(C)C)c(=O)c2ccccc12	-3	-6%	-6	-14	-2.3
COc1ccc(Cl)cc1C(=O)NNC(=O)C1COc2ccccc2O1 (stereo not given)	-2	-3%	x	-5	2.4
C=CCNC(=O)COc1ccc(N(C)S(=O)(=O)c2ccc(NC(C)=O)cc2)cc1	-1	-1%	x	-4	-6.9
Cc1ccc2c(CC(=O)O)coc2c1C	1	-8%	1	-8	1.4	Arbovirus anti repeat=0
O=C(CCC(=O)N1CCN(S(=O)(=O)c2ccc(Cl)cc2)CC1)Nc1cccc(Br)c1	-5	9%	-12	50	4.7
CC12C(=O)N(c3ccccc3)C(=O)C1C(c1ccccc1)N1CCCN12 (stereo not given)	x	-5%	x	-2	-4.9
COc1ccc(C(=O)Nc2cc(C)nn2-c2nc3ccccc3[nH]2)c(OC)c1	-6	57%	x	38	0.0
Cc1ccccc1N1CCN(C(=S)c2ccccc2)CC1	1	-2%	-20	6	1.9
Oc1ccc(-c2nccc(-c3ccc(F)cc3)n2)cc1	x	x	x	87	0.2
Cc1ccc(S(=O)(=O)NC(=O)Nc2ccc(Cl)cn2)cc1	10	-6%	-36	1	-0.6
CCOCN(C(=O)CCl)c1c(C)cccc1CC	x	x	x	47	1.4
Nc1nnnn1/N=C/c1ccccc1C(F)(F)F	1	-4%	-32	-1	-2.1
COc1ccc(/C=C2\Oc3cc(OCC(=O)N4CCC[C@H]4C(=O)O)ccc3C2=O)cc1OC	x	x	x	-1	-6.2
C[C@H](NC(=O)c1nc[nH]c1C(=O)N[C@@H](C)C(=O)OC(C)(C)C)C(=O)OC(C)(C)C	x	-1%	x	-9	-2.5
CCn1c(=O)c(C(=O)NC(C)c2ccccc2)c(O)c2ccccc21 (stereo not given)	x	x	x	-5	-2.7
COCCOC(=O)c1[nH]c2c(c1C)C(=O)CC(c1cc(OC)c(OC)c(OC)c1)C2 (stereo not given)	x	x	x	6	-0.7
CN(CC(=O)N1CCN(c2ccccn2)CC1)S(=O)(=O)c1ccc(Br)cc1	-7	-4%	-26	-6	0.2
CC(NCc1ccc(N(C)C)cc1)C1CC2CCC1C2 (stereo not given)	16	-10%	-3	2	-1.2
O=C(NCCCc1ccncc1)C1CCC(=O)N(CCc2cccc(F)c2)C1 (stereo not given)	x	x	x	10	0.5
COCCNC(=O)c1sc2ncn(CC(=O)Nc3ccc(C)c(Cl)c3)c(=O)c2c1C	3	4%	x	0	-1.6
Cc1ccc(S(=O)(=O)NC2CCCC2)cc1C	4	6%	1	-8	-2.3
CC(C)(C)NC(=O)c1cc(-c2ccc3c(c2)OCO3)nc2ccccc12	x	x	x	53	3.5
CCOc1ccccc1NC(=O)COn1nnc2ccccc21	-5	-3%	-6	40	0.2
Cc1ccc(N2C(=O)N(CC(=O)NCc3ccccc3Cl)C(=O)C2C)cc1 (stereo not given)	1	6%	x	-1	3.2
CCN(CC)CCOC(=O)c1ccc(NC(=O)c2cn(-c3ccccc3)nc2-c2cccs2)cc1	-28	31%	x	x	x
Cc1ccccc1-c1nnn(CC(=O)N2CCN(S(=O)(=O)c3ccc(Cl)cc3)CC2)n1	-1	1%	-11	-6	4.2
Cc1c(C(=O)Nc2ccccc2C(=O)N2CCCC2)cccc1[N+](=O)[O-]	6	2%	x	0	1.6
O=C(c1sc2ccccc2c1Cl)N1CCN(c2ncccn2)CC1	-4	2%	-6	-5	x
Cc1ccc(CC(=O)NCCN2CCOCC2)cc1	x	x	x	2	-0.2
CCC(=O)Nc1ccc(Cl)c(NC(=O)c2ccccc2OC)c1	-2	13%	x	-3	-1.4
COCCNCCCCSc1ccc(Cl)cc1	-31	-1%	x	3	-0.3
CCCNC(=O)c1ccccc1C(=O)NCCC	4	1%	-127	-14	2.1
NC(=O)NC(=O)COC(=O)c1ccc2noc(-c3ccccc3)c2c1	x	x	x	7	-0.6
CCc1ccc(NC(=O)C2CCCN(S(C)(=O)=O)C2)cc1 (stereo not given)	2	0%	x	-6	-0.3
O=C(Nc1ccc2nsnc2c1)c1ccc2c(c1)OCO2	-19	4%	17	2	x
COc1cc(-c2nnc(NC(=O)c3ccco3)o2)cc(OC)c1OC	x	x	x	73	-1.7
O=c1c2oc3ccccc3c2ncn1Cc1ccccc1Cl	-5	-1%	-10	u	-1.5
Cc1ccc(S(=O)(=O)Nc2ccc(C(=O)OCC(=O)N(CCC#N)c3ccccc3)cc2)cc1C	5	-2%	-31	4	-6.9
Cc1cccc(NC(=O)NCCN2CCN(c3ccccc3)CC2)c1C	x	x	x	1	-0.5
Cc1ccc2[nH]c3c(c2c1)SC(C)(C)CC3=O	3	4%	x	6	x
CCCCC(=O)NCCc1cc2ccc(OC)cc2[nH]c1=O	-4	-24%	6	10	0.8
Cc1nnc2n1N=CC=C(C(C)(C)C)S2	0	-3%	-8	-3	1.8
COc1ccc(NC(=O)CN2CCc3ccccc3C2)c(OC)c1	x	x	x	7	0.5
COc1ccc(C(C(=O)NC(C)(C)C)N(C(=O)Cn2nnc3ccccc32)c2ccc(C(C)=O)cc2)cc1O (stereo not given)	x	-10%	x	-2	-0.4

Compound activity (PubChem)
